Six1-Eya2 blk = inhibitors of human Six1/Eya2 interaction | Q15475+O00167 | AlphaScreen GST-Six1/His-Eya2 binding, biochemical; hits give low values; control for the full effect not named in the record | activity change, % (test concentration not listed) | actives 0.56% (n = 360,000); in the data active = activity change below about -65%; inconclusive = about -30% to -65%; inactive = above about -30%; also: % is scaled to controls: 0 for no effect and ±100 for the full control effect; compound concentration not given in the record
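AlphaScreen with GST-Six1 and His-Eya2 (5X mix: 250 nM and 500 nM), glutathione donor and nickel acceptor beads; buffer 50 mM Tris pH 8.0, 300 mM NaCl, 1 mM TCEP; 1 h at 37 C in the dark.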
TRPV1 potentiator = human TRPV1 potentiation. TRPV1-expressing cells, Fluo-8 calcium influx, capsaicin EC20 potentiation; host cell line not named in the record; control for the full effect not named in the record. potentiation, % at 8.33 µM. actives 0.02% (n = 320,000); active means potentiation above 80%; inconclusive means 30% to 80%; inactive means below 30%; also: 0% is about no effect
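Fluo-8 calcium influx in TRPV1-expressing cells, kinetic read (ex 480/em 520 nm). Compound added and read 3 min for agonist activity, followed by capsaicin at EC20 final and 2 min further read for enhancement.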
D2 PAM = potentiates the human D2 dopamine receptor allosterically. potentiation, % (test concentration not listed). DiscoveRx D2 beta-arrestin cells, luminescence, 90 min; 100% = 57 uM dopamine signal. AID 624464. P14416. actives 0.23% (n = 360,000); active = potentiation of 50% or more; inconclusive = 30% to 50%; inactive = 30% or less;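 also: compound concentration not given in the record; tested on top of an EC20 dose of dopamine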
Target sequence (P14416 whole entry, looked up): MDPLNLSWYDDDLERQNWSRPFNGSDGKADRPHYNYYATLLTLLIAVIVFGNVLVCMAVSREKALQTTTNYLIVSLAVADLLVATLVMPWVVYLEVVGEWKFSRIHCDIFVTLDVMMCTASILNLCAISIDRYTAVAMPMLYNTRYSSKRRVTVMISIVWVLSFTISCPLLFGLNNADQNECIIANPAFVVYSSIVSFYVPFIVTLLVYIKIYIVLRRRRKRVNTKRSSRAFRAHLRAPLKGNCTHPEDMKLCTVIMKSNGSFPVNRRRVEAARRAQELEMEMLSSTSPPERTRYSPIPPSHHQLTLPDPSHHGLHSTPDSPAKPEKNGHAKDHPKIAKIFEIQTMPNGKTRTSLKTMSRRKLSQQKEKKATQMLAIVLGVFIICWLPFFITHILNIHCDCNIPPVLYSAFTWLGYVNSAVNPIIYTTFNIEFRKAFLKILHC
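D2 cells co-treated with compound plus 50 nM dopamine (EC20) for 90 min at 37 deg C to detect potentiation. Beta-arrestin recruitment was read as enzyme-fragment luminescence after 1 h at ambient temperature. Full response was set by 57 uM dopamine.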
TRPML1 blocker = blocks the human TRPML1 channel. Q9GZU1. TRPML1-inducible cells, Ca2+ dye fluorescence, FDSS; hits give low values; inhibition of EC80 agonist-evoked calcium signal. activity change, negative = inhibition, % (test concentration not listed). actives 0.02% (n = 390,000); in the data active means activity change below about -50%; inconclusive means about -30% to -50%; inactive means above about -30%;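 also: stimulus is agonist 54-4 at its EC80 concentration; % is scaled to controls: 0 for no effect and ±100 for the full control effect; compound concentration not given in the record; the text of the record puts the active cut at -80%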
Target sequence (Q9GZU1 whole entry, looked up): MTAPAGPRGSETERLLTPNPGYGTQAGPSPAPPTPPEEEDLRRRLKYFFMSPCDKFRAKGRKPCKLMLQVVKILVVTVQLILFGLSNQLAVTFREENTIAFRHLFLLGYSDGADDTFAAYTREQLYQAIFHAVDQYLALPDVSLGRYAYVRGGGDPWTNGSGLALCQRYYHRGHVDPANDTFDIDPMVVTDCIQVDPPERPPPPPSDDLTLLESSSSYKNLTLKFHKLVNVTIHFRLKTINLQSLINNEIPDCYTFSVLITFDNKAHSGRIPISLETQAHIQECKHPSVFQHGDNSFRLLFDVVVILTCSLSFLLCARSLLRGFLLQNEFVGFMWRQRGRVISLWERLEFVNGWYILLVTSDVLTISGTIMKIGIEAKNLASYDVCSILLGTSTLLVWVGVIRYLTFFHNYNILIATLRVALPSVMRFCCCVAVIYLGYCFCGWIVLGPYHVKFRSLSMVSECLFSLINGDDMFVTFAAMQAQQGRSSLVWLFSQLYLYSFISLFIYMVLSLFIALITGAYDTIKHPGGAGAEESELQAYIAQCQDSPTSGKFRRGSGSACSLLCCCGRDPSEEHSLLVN
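TRPML1-DL cells, Tet-induced overnight (~16 h, 37 °C) at 1,500 cells/well, were loaded with Ca8 no-wash dye plus quencher for 45-90 min at room temperature. Compounds were pinned during FDSS kinetic reading; agonist 54-4 at EC80 (4 uM final) then added.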
TRPML1 ag = agonists of human TRPML1 channel | Q9GZU1 | actives 0.12% (n = 410,000) | TRPML1-expressing cells, Ca2+ dye fluorescence, FDSS; host cell line not named in the record; reference of the full effect not given here | activation, % (no concentration beside the values) | AID 624414; in the data active = activation above about 50%; inconclusive = about 30% to 50%; inactive = below about 30%; also: 0% is about no effect; the text of the record puts the active cut at 80%
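Cells: TRPML1-DL, 1X Tet inducer, ~16 h at 37 degrees C/5% CO2. Dye: ABD Ca8 no-wash + quencher, 45-90 min RT. Read: 10 s baseline, compound add, 110 s agonist phase; 54-4 EC80 (4uM final), 110 s antagonist phase.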
CtBP-E1A inh = inhibitors of CtBP/E1A interaction; AlphaScreen GST-E1A/His-CtBP binding, 1536-well; hits give low values; control for the full effect not named in the record; activity change, % (concentration not given with the values); actives 0.49% (n = 340,000); in the data active means activity change below about -65%; inconclusive means about -30% to -65%; inactive means above about -30%; also: % is scaled to controls: 0 for no effect and ±100 for the full control effect
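In 5 uL wells, 23 nL compound meets equimolar GST-E1A and His-CtBP (5X stock 125 nM each) for 2 h, 37 °C. Beads (5X, 50 ug/mL) then 1 h, 37 °C, dark.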
Numbers without * were called inactive; u = inconclusive; x = not tested or not shown; & = joins results of further samples.

SMILES	Six1-Eya2 blk	TRPV1 potentiator	D2 PAM	TRPML1 blocker	TRPML1 ag	CtBP-E1A inh
CNC(=S)N(CCc1c(C)[nH]c2ccccc12)Cc1cc(OC)c(OC)c(OC)c1	-2	-4	7	4	-0.5	-4
C=CC[C@@H](CC(=O)N[C@@H](CO)Cc1ccccc1)C(=O)N[C@H](C)COC(=O)[C@@H](CC=C)Cc1ccc(F)cc1	10	x	5	-4	0.5	5
Cc1cc(C(=O)CCC(=O)NCc2ccccc2F)c(C)s1	6	5	-14	27	4.0	-6
Cc1cc2cc(C)c(NCCNC(=O)c3ccccc3)nc2cc1C	0	-3	-12	-4	0.6	x
CCCCCCOc1ccc(N2C(=O)CC(SC(=NCC)NCC)C2=O)cc1 (centres undefined)	3	1	-1	-8	-0.6	7
Cn1c(N2CCN(C(=O)NCc3ccccc3)CC2)nc2ccccc21	-1	21	-11	9	0.5	-2
COc1ccc(C(C)NC(=O)C2CCN(CCOc3ccc(Cl)cc3Cl)CC2)cc1OC (centres undefined)	8	x	-7	x	2.2	9
O=C(/C=C/c1ccc2c(c1)OCO2)c1ccco1	5	-6	-8	-10	0.7	-7
CCn1cc(-c2cc(C(=O)O)c3ccccc3n2)cn1	-1	1	2	8	-0.9	1
CCC(Sc1nc2ccccc2c(=O)[nH]1)C(=O)O (centres undefined)	0	0	-6	-3	0.0	12
Cc1cc(C(=O)NC2CCCCC2)c(C)o1	-4	5	-20	-15	-0.3	10
O=C(NCc1ccccn1)Nc1ccc(Br)cc1	2	-16	-12	10	-0.5	2
Cc1nc2ccc(S(=O)(=O)NCC(=O)N3CCCC(C)C3)cc2s1 (centres undefined)	5	-4	5	8	0.2	10
COc1ccccc1CNC(=O)CN1C(=O)CSc2ccc(S(=O)(=O)N3CCCC3)cc21	2	1	2	0&-1	0.5&0.8	x
COc1ccc(NC(=O)/C(C#N)=C/c2ccc(Br)o2)cc1	-9	-7	3	0	1.2	3
OC(COc1ccccc1)Cn1c2ccccc2c2ccccc21 (centres undefined)	1	0	-9	13	1.0	5
C=CCOC(=O)C1=C(C)N=c2s/c(=C3\C(=O)N(CC(=O)O)c4ccccc43)c(=O)n2C1c1ccc(OC)cc1 (centres undefined)	-4	7	-16	x	x	-9
O=C(Cc1cccc2ccccc12)Nc1ccc2c(c1)C(=O)NC2=O	-13	-9	-14	13	1.3	-7
CC(C)Cn1c(CN(C)Cc2ccccc2)nc2c1c(=O)n(C)c(=O)n2C	2	6	-6	-4	0.4	1
O=C(CN(c1ccccc1)S(=O)(=O)c1ccccc1)NCCSc1ccccn1	4	-8	-1	11	0.9	21
CN(C)/C=N/C(=S)Nc1ccc(F)cc1	0	14	0	-3	-0.5	-1
CCCOC(=O)c1ccc(Cl)c(NC(=O)c2ccc(-c3ccccc3)cc2)c1	4	17	0	10	-0.1	11
CCc1cccc2c(C(=O)CSc3nncn3C)c[nH]c12	2	16	0	5	-0.1	11
N#C/C(=C/c1ccco1)c1nc2ccccc2s1	-12	1	9	54	-0.2	-12
C=C(C)C1CC=C(CN2CCC(O)CC2)CC1 (centres undefined)	2	7	-19	3	-0.5	5

By substructure, the entries above with a Cl atom.
SMILES	Six1-Eya2 blk	TRPV1 potentiator	D2 PAM	TRPML1 blocker	TRPML1 ag	CtBP-E1A inh
COc1ccc(C(C)NC(=O)C2CCN(CCOc3ccc(Cl)cc3Cl)CC2)cc1OC (centres undefined)	8	x	-7	x	2.2	9
CCCOC(=O)c1ccc(Cl)c(NC(=O)c2ccc(-c3ccccc3)cc2)c1	4	17	0	10	-0.1	11

(next part)
SMILES	Six1-Eya2 blk	TRPV1 potentiator	D2 PAM	TRPML1 blocker	TRPML1 ag	CtBP-E1A inh
CC(c1ccc(Cl)cc1)n1c(-c2ccc3ccccc3n2)n[nH]c1=S (centres undefined)	-7	-8	-15	5	-0.5	-9
O=C(O)c1cccc2c1-c1c(cccc1[N+](=O)[O-])C2	-2	x	2	-2	-0.5	18
CCCCN(C)C(=O)c1nc2ccccn2c1CNCCCn1nnc2ccccc21	5	8	-29	-8	0.0	4
CCC(C)(C)NC(=O)C(c1ccccc1)N(Cc1cccs1)C(=O)Cn1nnc2ccccc21 (centres undefined)	2	x	-23	8	6.7	5
Cc1nc(NC2=NCN(Cc3cccnc3)CN2)nc2ccccc12	0	1	-4	15	-0.1	4
CCOC(=O)N1CCN(S(=O)(=O)c2ccc(C)cc2)C1	-4	x	-1	40	0.2	x
COC(=O)c1ccc2nc(-c3ccco3)c(Cc3ccc(OC)cc3C)n2c1	u	x	2	5	-0.3	1
Cc1ccc(Cn2c(=N)n(CC(=O)c3ccccc3)c3ccccc32)cc1	6	3	-3	1	1.6	-11
NS(=O)(=O)c1ccc(CCNC(=O)CSc2nc3ccsc3c(=O)n2CCCCC(=O)O)cc1	0	29	u	6	1.7	x
COc1ccc(-n2c(Cc3cccn3C)nnc2SCC(=O)Nc2cccc(F)c2)cc1	-11	7	-2	-10	0.4	-19
COc1ccc(NC(=O)c2sc3nc(C)nc(N4CCN(c5ccccn5)CC4)c3c2C)cc1Cl	9	0	-8	3	-0.1	5
Cc1cccc(C)c1OCCCn1c(CCNC(=O)C2CCCCC2)nc2ccccc21	x	-16	x	28	0.8&2.9	x
CSc1sc(C(=O)NC(=O)NCc2ccncc2)c(C)c1-c1ccon1	-3	-18	-16	8	0.0	-8
CCN1C(=O)[C@H]2[C@@H](c3ccc(OC)cc3)N[C@]3(CCCN(Cc4ccc(OC)cc4)C3=O)[C@H]2C1=O	10	x	4	-17	0.8	4
c1ccc(N2CCN(c3nc(-c4ccccn4)nc4ccccc34)CC2)cc1	-67*	-1	-17	9	1.8	-71*
Cc1cccc(CN2CCC(Oc3ccc(C(=O)N4CCCCC4)cc3)CC2)c1	-12	-10	-23	30	-0.2	-8
CCOC(=O)N1CCN(C(=O)COc2cccc3c2CCN(Cc2ccc(F)cc2)C3=O)CC1	2	18	-14	-8	0.4	8
O=[N+]([O-])c1ccc2[nH]c(O)c(N=NC(=S)NCC3CCCO3)c2c1 (centres undefined)	-21	4	-18	-10	0.1	-15
O=C(CN1CCSc2ccccc21)NCCCc1ccccc1	-19	10	-5	-10	0.4	u
O=C(NC1CC2CCC(C1)N2C(=O)NCc1ccccc1)NC12CC3CC(CC(C3)C1)C2 (centres undefined)	11	-6	-2	8	0.8	-4
COC(=O)c1[nH]c2cccc(OC)c2c1NC(=O)CN1CCOCC1	-13	3	16	-15	-0.6	-6
OCc1nc2ccccc2n1CC(O)COc1ccccc1 (centres undefined)	2	-15	-13	3	-0.8	-2
CC(C)C[C@H]1CN([C@@H](CC(C)C)CN2CCCC2CN2C(=S)NC[C@@H]2Cc2ccc(O)cc2)C(=S)N1CC1CCCCCC1 (some centres undefined)	1	x	1	9	-0.4	5
Cc1cc(C)c(S(=O)(=O)N2CCOC2CNC(=O)C(=O)NCc2cccnc2)c(C)c1 (centres undefined)	2	12	-1	15	-0.4	0
COC(=O)c1ccc(C)c(-n2c(=O)n(Cc3ccccc3)c(=O)c3[nH]cnc32)c1	-6	-2	-26	0	2.0	2

Arranged by count of non-hydrogen atoms (high to low): part of the list above
SMILES	Six1-Eya2 blk	TRPV1 potentiator	D2 PAM	TRPML1 blocker	TRPML1 ag	CtBP-E1A inh
COC(=O)c1ccc2nc(-c3ccco3)c(Cc3ccc(OC)cc3C)n2c1	u	x	2	5	-0.3	1
Cc1nc2ccc(S(=O)(=O)NCC(=O)N3CCCC(C)C3)cc2s1 (centres undefined)	5	-4	5	8	0.2	10
Cc1cc(C(=O)CCC(=O)NCc2ccccc2F)c(C)s1	6	5	-14	27	4.0	-6

Additional results.
SMILES	Six1-Eya2 blk	TRPV1 potentiator	D2 PAM	TRPML1 blocker	TRPML1 ag	CtBP-E1A inh
COc1ccccc1CN1Cc2cccc3c2[C@@H](CC1=O)[C@H](O)[C@H](O)C3	2	3	1	9	0.1&-0.2	3
O=C1CCCCC(=O)c2ccccc2N1	1	26	1	1	3.4	6
Cc1cccc(Nc2ccncc2S(N)(=O)=O)c1	11	x	-8	-19	0.3	9
C=CC[C@H](CC(=O)N(CCO)Cc1ccccc1)C(=O)N[C@H](C)COC(=O)[C@@H](CC=C)Cc1ccc(F)cc1	7	x	-8	3	1.1	1
COC(=O)[C@@]1(Sc2ccc(OC)cc2)CC(=O)N[C@@H]1c1ccccc1	8	x	x	x	0.5	0
CSc1ccccc1NC(=O)c1cccc(S(=O)(=O)N2CCN(C)CC2)c1	-4	-11	-17	29	0.0	-3
COc1ccc(C)cc1NC(=O)C(Sc1nnc(Nc2ccccc2F)s1)c1ccccc1 (centres undefined)	-14	8	-13	-8	1.1	-21
COc1ccc(N(C)C(=O)c2cc3c(s2)-c2ccccc2S(=O)(=O)C3)cc1	-14	4	4	-7	2.2	-1
O=c1c2ccccc2oc2ccc(C#CC3(O)CCCCC3)cc12	0	x	-7	-7	-0.2	2
CC(C)(C)c1ccc(OC(=O)c2cccnc2)cc1	5	-53	-18	-6	-0.6	7
CCCn1nnc(NC(=O)COc2ccc(CC)cc2)n1	-1	9	-13	3	-0.4	7
Cc1cc[n+](-c2[nH]c(=O)sc2/C=N/N=C(\[O-])c2ccncc2)cc1	-19	9	10	-5	0.2	-18
COc1ccc([C@@H]2[C@@H]3C(=O)N(C(C)(C)C)C(=O)[C@@H]3[C@]3(Cc4ccccc4)C(=O)N(c4cccc(Cl)c4)C(=O)N23)cc1	1	9	-4	-13	2.1	1
O=C(Cn1cnc2c(cnn2-c2ccc(F)cc2)c1=O)OCc1ccccc1	4	22	7	-3	2.7	10
O=C(C1=NN[C@@H]2C(=O)N(Cc3ccccc3)C(=O)[C@H]12)c1ccc(F)cc1	14	-11	4	4	1.6	28
CCCc1c(C)[nH]c2ccc(NC(C)=O)cc2c1=O	-1	8	-9	17	-0.3	11
Cc1ccc(C)n1-n1cnc2sc3c(c2c1=O)CCC3	-11	-27	-6	10	0.1	6
Cc1cc(NC(=O)Cn2nc(C(=O)O)c3ccccc3c2=O)c([N+](=O)[O-])cc1C	6	4	0	1	2.8	3
COC(=O)c1cn(NC(=O)Cc2ccc(Cl)cc2)c(=O)c2ccccc12	1	2	-19	1	1.6	-1
Cc1nn(C)cc1C(C)NC(=O)c1cc(COc2ccc(F)c(F)c2)on1 (centres undefined)	2	1	-6	0	0.0	x
COC(=O)C1=C(C)NC2=C(C(=O)CC(C)(C)C2)C1c1cnn(C)c1C (centres undefined)	1	3	-5	4	-1.0	8
Nc1cc2nn(-c3ccccc3)nc2cc1Cl	-9	u	-6	5	-0.6	-4
COC(=O)[C@H]1[C@H]2C[C@H]3c4[nH]c5ccccc5c4CCN3C[C@H]2CC[C@@H]1O	-2	13	-23	4	-0.6	-1
O=C(NCc1ccco1)c1cnc2sccn2c1=O	3	11	-2	-6	-0.7	3
COC(=O)c1c(NS(=O)(=O)c2ccccc2)csc1C	12	0	-7	-21	1.0	6
CC(=O)N/C(N)=N/c1nc(=O)c2ccccc2s1	-1	1	-22	44	-0.5	x
CC(C)CCOc1ccc(C(CC(N)=O)C(=O)O)cc1 (centres undefined)	4	7	-6	5	-1.0	4

Some entries already given, limited to TRPML1 blocker.
Structure,TRPML1 blocker
Nc1cc2nn(-c3ccccc3)nc2cc1Cl,5
COC(=O)[C@H]1[C@H]2C[C@H]3c4[nH]c5ccccc5c4CCN3C[C@H]2CC[C@@H]1O,4

Source: PubChem BioAssay
